B2AR ag = activates human beta-2 adrenergic receptor causing internalization | Am2.2-beta2AR cells, FAP receptor internalization, flow cytometry; reference of the scale not given here | response, % (concentration not given with the values) | 340,000 tested, 0.43% active | AID 504454;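 active = response above a set limit, near 3 SD of response in nonfluorescent compounds, cut at about 42% in these data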;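 note: stock transfer was 100 nL into about 11 µL; a reference agonist was the positive control; negative values mostly stem from fluorescent compounds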
Target sequence (P07550 whole entry, looked up): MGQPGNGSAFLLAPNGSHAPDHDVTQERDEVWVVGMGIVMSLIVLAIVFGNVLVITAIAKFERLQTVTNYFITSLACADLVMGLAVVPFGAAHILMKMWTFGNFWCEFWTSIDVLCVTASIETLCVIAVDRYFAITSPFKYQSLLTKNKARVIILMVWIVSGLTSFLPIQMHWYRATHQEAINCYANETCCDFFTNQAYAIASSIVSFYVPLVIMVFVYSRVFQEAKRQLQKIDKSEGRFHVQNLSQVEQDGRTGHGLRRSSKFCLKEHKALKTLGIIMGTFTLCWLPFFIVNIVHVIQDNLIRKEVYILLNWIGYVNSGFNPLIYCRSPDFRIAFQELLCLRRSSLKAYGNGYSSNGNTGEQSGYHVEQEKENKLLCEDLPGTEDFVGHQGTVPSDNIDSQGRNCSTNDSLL
HNF4A DNA FP = change in binding of human HNF4 alpha to DNA. 360,000 tested, 0.3% active. activity change, % at 10 µM. P41235. HNF4a-FITC DNA binding, fluorescence polarization, 1 h. AID 1224865; in the data active = activity change above about 30%, passing the limit was not always enough;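 note: controls were the assay level and a saturating level of protein; the project sought stronger binding though the title names inhibitors; some compounds called inactive have numbers as strong as hits; positive values seem to mean higher polarization but the record does not say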
Target sequence (P41235 whole entry, looked up): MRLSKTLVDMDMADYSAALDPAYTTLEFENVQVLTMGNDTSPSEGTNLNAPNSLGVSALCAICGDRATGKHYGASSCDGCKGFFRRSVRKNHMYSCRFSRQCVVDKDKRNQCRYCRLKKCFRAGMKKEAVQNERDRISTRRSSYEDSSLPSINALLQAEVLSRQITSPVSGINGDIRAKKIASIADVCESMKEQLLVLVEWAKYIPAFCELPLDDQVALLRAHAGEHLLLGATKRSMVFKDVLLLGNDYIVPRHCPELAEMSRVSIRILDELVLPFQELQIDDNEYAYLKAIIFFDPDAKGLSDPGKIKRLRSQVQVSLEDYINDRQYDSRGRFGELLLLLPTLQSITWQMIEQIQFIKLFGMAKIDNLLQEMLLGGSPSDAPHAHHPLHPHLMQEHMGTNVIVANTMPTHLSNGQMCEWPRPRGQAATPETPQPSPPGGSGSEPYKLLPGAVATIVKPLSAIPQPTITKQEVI
LANA-H2A inh = blocks KSHV LANA binding to histone H2A/H2B; Q9QR71; cell-free LANA-H2A/H2B peptide, fluorescence polarization; inhibition, % (concentration not given with the values); 320,000 tested, 0.6% active; AID 2629; in the data active = inhibition mostly above about 10%, no sharp cut-off; inactive = mostly below about 6.7%;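 note: stock transfer was 7.5 nL into about 10 µL; 0% = median of vehicle wells and 100% = median of positive control wells; one replicate is shown; the record names a cut of 25% in any replicate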
E coli growth = blocks Escherichia coli growth; OD600, 23 h; hits give low values; OD600 absorbance (no concentration beside the values); AID 1053175; 330,000 tested, 0.21% active;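 active = OD600 absorbance below the run mean of sample wells minus 3.6 SD, in any replicate, cut at about 0.56 in these data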;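 note: stock transfer was 300 nL into about 60 µL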
A1 inh = inhibitors of the anti-apoptotic protein A1, read as caspase activation | MEF A1-2A-BIM cells, Caspase-Glo 3/7 luminescence, 3 h; percent of clofoctol response, vehicle zero | caspase activation, % (test concentration not listed) | 330,000 tested, 0.066% active;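 active = over half of replicate activation scores above 10%, or exactly half above 10 with the replicate mean above 10; inconclusive = replicate mean below 10 yet half the replicates above 10; inactive = over half of replicates below 10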;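 note: wells of about 30 µL received 50 nL stock; many hits fall short of the cut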
Vif A3G = inhibitors of Vif binding to APOBEC3G peptide, primary screen, biochemical, TR-FRET, GST-Vif 1-94, biotin-A3G peptide, dose response retest (AID 1117319); TR-FRET GST-Vif / biotin-A3G peptide binding; higher % means a stronger effect; test concentration not given here; strong numbers were not always called active; inhibition, %, or IC50 in µM where a hit was titrated; 260,000 tested, 0.57% active;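 active = above the screen mean plus three standard deviations and confirmed in dose response; inconclusive = results disagree or hit not tested in dose response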;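 note: Vif residues 1-94 fused to GST binding biotinylated APOBEC3G peptide 110-148; 0% = full assay without inhibitor and 100% = GST in place of GST-Vif; retest series ran down from 100 µM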
UCH37 DUB inh = blocks the human deubiquitinase UCH37. Q9Y5K5. purified proteasome/UCH37, Ub-AMC cleavage fluorescence. inhibition, % (test concentration not listed). 330,000 tested, 0.33% active. AID 588478;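 active = mean of two replicates above 20%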;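 note: 0% = compound-free wells with enzyme and 100% = wells lacking proteasome; stock transfer was 100 nL into about 20 µL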
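Signal – fluorescence, ex 355 nm, em 460 nm · System – Proteasome-bound UCH37 · Input – 0.15 nM proteasome as dispensed · Timing – 30 min preincubation with enzyme, 25 min cleavage at room temperature · Read-out basis – percent inhibition of cleavage signal versus uninhibited and no-proteasome wells · Medium – Tris-HCl pH 7.4 with ATP-MgCl2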
* = called active by the depositor; i = inactive; u = inconclusive; x = no result given; & = joins results of further samples.

smiles	B2AR ag	HNF4A DNA FP	LANA-H2A inh	E coli growth	A1 inh	Vif A3G	UCH37 DUB inh
COc1ccc(OC)c(-c2csc(N(C)C(=O)c3ccco3)n2)c1	1	-2.3	1.0	0.66	0.4	-57%	-15
N/C(=N\OC(=O)CCCOc1ccc(Cl)cc1Cl)c1ccccn1	-3	5.1	2.2	0.67	-0.5	x	1.2
Cc1cc([N+](=O)[O-])nn1CC(=O)N/N=C/c1ccccc1O	-2	-0.7	-6.1	x	0.0	2%	x
CCOC(=O)c1ccc(NC(=O)CNS(=O)(=O)c2ccccc2)cc1	-5	-2.2	2.0	0.78	0.6	2%	2.7
COc1ccc(C(=O)COC(=O)CSCc2c(C)noc2C)cc1OC	1	-2.1	0.3	0.65	0.1	-2%	3.7
O=C(Cc1ccc(Br)cc1)N/N=C/c1ccc(-c2cccc(C(=O)O)c2)o1	4	-7.5	-0.2	x	-0.4	14%	x
O=C(NCc1ccc(OC(F)(F)F)cc1)C1CC(c2cccc(F)c2)=NO1 (stereo unspecified)	6	0.7	-0.3	0.67	-0.3	7%	0.5
Cc1ccc(S(=O)(=O)Nc2ccc(S(=O)(=O)Nc3ncccn3)cc2)cc1	-2	0.0	2.8	0.7	u	21%	6.4
Cc1nn(-c2ccccc2)c(C)c1CN	-1	2.0	2.2	0.7	0.3	15%	2.4
Fc1ccc(CN2CCN(c3ncccn3)CC2)c(F)c1	-1	1.7	2.6	0.69	0.0	x	0.2
CCOc1ccc(/C=C(\C)C(=O)c2c(C)cc(C)[nH]c2=O)cc1	-4	0.4	-2.0	0.7	0.3	2%	12
COc1ccc2[nH]c3c(c2c1)CCN1C(=O)C(CC(=O)NCCC2=CCCCC2)C[C@H](C(=O)N2CCCCC2)[C@@]31CCc1ccccc1 (stereo partly specified)	1	1.9	x	0.75	x	x	3.9
Cc1ccc2nc(-c3cccc(NC(=O)c4ccco4)c3)[nH]c2c1	13	4.2	2.0	0.67	-0.2	7%	-1.5
CCn1cc(SCC(=O)N2CCOCC2)c2ccccc21	8	-2.1	2.2	0.74	0.5	-1%	4.1
COC(=O)C(NS(=O)(=O)c1ccc(C)cc1)c1ccccc1 (stereo unspecified)	0	1.1	-1.5	0.68	-0.7	6%	-0.6
Cn1c(=O)n(C)c2cc(NS(=O)(=O)c3ccccc3)ccc21	0	-4.2	1.0	0.71	0.1	x	2.0
CC(C)c1ccc(/C=C/C(=O)N2CCOCC2)cc1	-5	0.7	2.5	0.67	-3.6	0%	4.5
O=C(CSCc1ccc(Cl)cc1)Nc1cccc(C(=O)Nc2ccccc2C(=O)O)c1	5	-0.3	0.1	0.69	-0.3	11%	1.1
COc1ccccc1CCNC(=O)C(=O)NCC1OCCN1S(=O)(=O)c1cccs1 (stereo unspecified)	-2	3.4	0.4	0.72	1.3	x	1.6
CCN(CC)C(=S)SCC(=O)c1ccccc1	-2	3.2	2.2	0.72	-3.4	3%	2.7
COc1ccc(NC2CC(=O)N(C(C)C)C2=O)cc1 (stereo unspecified)	2	2.1	-3.5	0.71	-1.2	2%	2.3
CC(C(=O)Nc1sc2c(c1C#N)CCCCC2)N1C(=O)c2ccccc2C1=O (stereo unspecified)	-6	3.4	x	0.7	0.7	30%	2.7
COCCNC(=O)CCc1nnc(Cc2ccc(-c3ccccc3)cc2)o1	-11	-0.1	-4.2	0.69	0.3	-15%	5.6
O=C(c1noc2c1CCc1ccccc1-2)N1CCOCC1	-167	0.1	5.6	0.7	-0.8	1%	1.3
CCOc1ccc(S(=O)(=O)N2CCN(C)CC2)cc1NC(=O)c1ccccc1F	-3	-0.3	0.1	0.7	0.5	23%	2.8
O=C(CCNC(=O)c1ccccc1Cl)Nc1ccc(S(=O)(=O)Nc2ncccn2)cc1	-5	2.1	5.5	0.7	-0.5	4%	0.3
COc1ccccc1N1CCN(C(=O)C2CCN(S(=O)(=O)N3CCOCC3)CC2)CC1	1	-0.3	x	0.74	x	-3%&27%	-2.5
Cc1occc1-c1nnc(SCCCC(=O)c2ccc(F)cc2)n1C	2	2.3	6.6	0.75	-0.2	0%	2.2
O=C(NC1CC1)C1=C[C@@H](C2CCCCC2)C[C@@H](OCCCCO)O1	-3	-2.5	-0.1	x	0.4	u	0.1
CC1=NN(c2ccccc2)C(=O)/C1=C/c1c(O)n(-c2ccc(F)cc2)[nH]c1=O	9	-1.9	-1.4	0.65	-3.5	x	18
CC(C)(CCO)NC(=S)NC1CC2C=CC1C2 (stereo unspecified)	-1	0.5	3.5	0.67	0.2	x	1.0
NS(=O)(=O)c1ccc(NC(=O)COC(=O)c2ncc(Cl)c(Cl)c2Cl)cc1	2	3.5	2.3	0.7	1.4	-4%	-0.5
C=CCNC(=O)CC(C)C(CCCCC)C(=O)O (stereo unspecified)	15	1.5	-0.8	0.73	0.0	-8%	3.3
Cc1ccc(C(=O)NCCN2C3=NC[C@H](Cc4ccc(O)cc4)N3C[C@H]2Cc2ccc(O)cc2)cc1Br	-3	1.8	-2.7	x	0.6	x	4.1
COc1ccc(C2(O)CC3CCC(C2)N3c2cc(C)nc(-c3ccccc3)n2)cc1 (stereo unspecified)	-12	1.1	2.5	0.69	0.7	21%	1.5
O=c1c2ccccc2c(C=Nc2ccccc2O)c(O)n1-c1nccs1	11	21	4.0	0.7	-0.1	32%	0.9
Nc1nnc(SCCCC(=O)c2ccc(F)cc2)s1	0	-0.4	2.7	0.69	-0.9	x	-0.6
CC1CN(CCOc2ccc(Cl)c(Cl)c2)CC(C)O1 (stereo unspecified)	1	-4.1	-4.2	0.68	-0.9	-2%	2.8
CCCCS(=O)(=O)Nc1ccc2c(c1)ncn2C1CCCCC1	-17	-0.4	0.2	0.69	0.0	u	1.3
CCOC(=O)N1CCN(C(=O)/C=C/c2ccc(OC)c(OC)c2)CC1	4	1.4	0.7	0.71	-0.9	x	-9.9
COc1ccc(Cc2nnc(NC(=O)CS(=O)(=O)c3ccccc3)s2)cc1OC	1	0.8	-2.2	x	-0.7	4%	x
COc1cc(NS(=O)(=O)c2ccc(NC(=S)NC(=O)c3ccco3)cc2)ncn1	2	3.4	8.3	0.68	-0.4	0%	6.3
CCCCn1c(SCC(=O)N2CCCCC2C)nc2cc(S(N)(=O)=O)ccc21 (stereo unspecified)	-15	-2.2	-2.3	0.73	0.1	4%	3.1
O=C(O)/C=C/C(=O)Nc1ccc(SC(F)(F)F)cc1	2	-3.9	-1.5	0.68	-0.2	-5%	2.1
CCCCn1c(N)c(N(CCOC)C(=O)c2ccc(N3C(=O)c4ccccc4C3=O)cc2)c(=O)[nH]c1=O	-8	-3.5	x	0.66	x	x	2.8
Cn1c(N)c(-c2nc3cccnc3n2C)sc1=S	-18	2.1	-3.0	0.69	1.6	-2%	-31
COc1ccccc1C(=O)COC(=O)c1ccc(N(C)C)cc1	-6	-1.3	-0.9	0.66	-2.4	u	5.2
CS(=O)(=O)c1ccccc1-c1nnc(NC(=O)C2=COCCO2)o1	-6	-0.3	x	0.72	0.2	-2%	3.8
Clc1cccc(N2CCN(Cc3ccc(Br)o3)CC2)c1	0	2.1	3.7	0.62	2.2	x	3.7
CCCOc1ccc(N2C(=O)C3ON(c4ccccc4)C(c4ccc(O)c(OC)c4)C3C2=O)cc1 (stereo unspecified)	4	2.2	-3.7	0.71	0.6	-1%	3.6
Cc1ccc(-c2nnc(NC(=O)c3ccco3)s2)cc1	-4	4.3	-5.8	0.69	-0.2	x	-2.2
Cc1ccc(C)c(Oc2ccc(S(=O)(=O)N3CCN(C)CC3)cn2)c1	1	-0.4	5.1	0.63	-0.7	10%	-0.7
O=C(/C=C/c1ccc([N+](=O)[O-])cc1)/C=C/c1ccco1	15	-24	0.2	x	0.3	x	x
NC(=O)CC(NC(=O)Cc1cccc2ccccc12)c1ccc(N2CCc3ccccc3C2)c([N+](=O)[O-])c1 (stereo unspecified)	3	6.3	0.7	x	-0.1	x	x
Cc1ccc(COC(=O)CCCN=C2NS(=O)(=O)c3ccccc32)cc1	5	-3.6	-2.3	0.71	0.3	-4%	2.1
COc1ccc(CCNS(=O)(=O)c2cc3c4c(c2)CCN4C(=O)CC3)cc1	14	1.8	4.6	0.69	0.6	29%	-1.2
CC(C)Oc1ccc(NC(=O)CCC(=O)O)cc1	7	-2.8	1.0	0.7	0.2	-7%	0.8
COc1cccc(NC(=O)CN2C(=O)NC(Cc3c[nH]c4ccccc34)C2=O)c1 (stereo unspecified)	2	-3.8	-2.5	0.66	0.1	-3%	4.4
CO/N=C/C(NC(=O)c1ccc(C(F)(F)F)cc1)C(=O)OC (stereo unspecified)	5	-1.3	4.3	x	-4.8	8%	x
COCC1CCCCN1C(=O)c1cc(COc2ccc3ncccc3c2)on1 (stereo unspecified)	-13	0.8	1.1	0.68	-1.2	x	5.9

Structures above that have a thiophene ring, fused or not:
smiles	B2AR ag	HNF4A DNA FP	LANA-H2A inh	E coli growth	A1 inh	Vif A3G	UCH37 DUB inh
COc1ccccc1CCNC(=O)C(=O)NCC1OCCN1S(=O)(=O)c1cccs1 (stereo unspecified)	-2	3.4	0.4	0.72	1.3	x	1.6
CC(C(=O)Nc1sc2c(c1C#N)CCCCC2)N1C(=O)c2ccccc2C1=O (stereo unspecified)	-6	3.4	x	0.7	0.7	30%	2.7

The list goes on:
smiles	B2AR ag	HNF4A DNA FP	LANA-H2A inh	E coli growth	A1 inh	Vif A3G	UCH37 DUB inh
Cc1cc(C(=O)NNC(=O)c2ccc(C(F)(F)F)cc2)no1	-6	0.4	2.0	0.64	0.0	-5%	3.2
COc1ccccc1-n1cc([C@@H]2C[C@H]3CN(c4ccccc4)C(=O)[C@]34CCCN24)cn1	-22	65*	-0.2	0.68	0.6	3%	0.8
Cc1ccc(C(=O)COC(=O)COc2ccccc2[N+](=O)[O-])s1	-4	-0.8	-3.9	0.69	0.0	-1%	3.7
COc1ccc(NC(=O)COc2cccc(-n3cnnn3)c2)cc1Cl	2	0.8	-2.7	0.64	0.3	0%	2.4
COc1ccc(C2CC(c3ccccc3)=NN2c2ccc(C(N)=O)cc2)cc1 (stereo unspecified)	2	-1.6	-1.3	0.64	0.1	x	i
O=C(CNC(=O)c1ccco1)OCC(=O)c1ccccc1Cl	-1	4.2	-0.3	0.67	0.5	x	1.2
Cc1onc(-c2c(F)cccc2Cl)c1C(=O)N1CCSCC1	6	-1.2	4.0	0.7	-0.6	3%	0.5
C=CCC[C@@H](Cc1ccc(F)cc1)C(=O)OC[C@H](Cc1c[nH]c2ccccc12)NC(=O)[C@@H](CC=C)CC(=O)N[C@@H](CO)Cc1ccccc1	1	0.1	-0.6	x	0.1	x	-0.7
Cc1sc(NC(=O)CSC2=NCCS2)nc1-c1ccccc1	0	1.7	-3.7	x	3.2	28%	x
COc1ccc(OC(C)C(=O)NCCC2=CCCCC2)cc1 (stereo unspecified)	3	1.3	0.8	0.66	0.7	3%	4.3
Cc1ccc(O)c(CNc2ccccn2)c1	0	1.4	-5.6	0.67	-0.7	3%	-0.5
Cc1cc([N+](=O)[O-])ccc1NC(=O)CSc1nncn1-c1ccccn1	-13	2.0	4.7	0.71	-0.7	x	2.0
Oc1ccccc1Nc1nc(NCC2CCCO2)c2ccccc2n1 (stereo unspecified)	47*	-3.6	-3.7	0.65	-0.1	1%	5.0
CCN(CCn1cccn1)C(=O)CCc1nnc(CCc2ccccc2OC)o1	1	-1.5	-4.5	0.69	0.2	u	0.7

High-throughput results (PubChem)
